Bioassay records from PubChem.
Beta cell apopt = beta cell apoptosis inhibition; INS-1E cytokine-induced death, ATP luminescence, 48 h; percent of positive-control rescue, neutral wells zero; protection from apoptosis, % (test concentration not listed); 0.8% of 300,000 active; AID 435005;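 active = all replicates at 75% or more, or half of them and the mean; inconclusive = half reach 75% but not the mean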;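 note: 0% = cytokine-treated negative control wells and 100% = positive control rescue; higher means more ATP so stronger rescue from cytokine killing; wells of about 40 µL received 100 nL stock; the first replicate is given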
Vif TR-FRET = HIV-1 Vif–A3G interaction blockers – biochemical, TR-FRET, GST-Vif 1-94, biotin-A3G peptide, dose response retest, primary screen (AID 1117319); TR-FRET GST-Vif / biotin-A3G peptide binding; higher % means a stronger effect; test concentration not given here; strong numbers were not always called active; one-dose inhibition, %; IC50 in µM for titrated hits; 0.57% of 260,000 active;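 active = above the screen mean plus three standard deviations and confirmed in dose response; inconclusive = results disagree or hit not tested in dose response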;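 note: Vif residues 1-94 fused to GST binding biotinylated APOBEC3G peptide 110-148; 0% = full assay without inhibitor and 100% = GST in place of GST-Vif; retest series ran down from 100 µM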
LANA-H2B inh = blocks KSHV LANA binding to histone H2A/H2B; Q9QR71; cell-free LANA-H2A/H2B peptide, fluorescence polarization; inhibition, % (test concentration not listed); 0.6% of 320,000 active; AID 2629; in the data active = inhibition mostly above about 10%, no sharp cut-off; inactive = mostly below about 6.7%;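 note: stock transfer was 7.5 nL into about 10 µL; 0% = median of vehicle wells and 100% = median of positive control wells; one replicate is shown; the record names a cut of 25% in any replicate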
Target sequence (Q9QR71 whole entry, looked up): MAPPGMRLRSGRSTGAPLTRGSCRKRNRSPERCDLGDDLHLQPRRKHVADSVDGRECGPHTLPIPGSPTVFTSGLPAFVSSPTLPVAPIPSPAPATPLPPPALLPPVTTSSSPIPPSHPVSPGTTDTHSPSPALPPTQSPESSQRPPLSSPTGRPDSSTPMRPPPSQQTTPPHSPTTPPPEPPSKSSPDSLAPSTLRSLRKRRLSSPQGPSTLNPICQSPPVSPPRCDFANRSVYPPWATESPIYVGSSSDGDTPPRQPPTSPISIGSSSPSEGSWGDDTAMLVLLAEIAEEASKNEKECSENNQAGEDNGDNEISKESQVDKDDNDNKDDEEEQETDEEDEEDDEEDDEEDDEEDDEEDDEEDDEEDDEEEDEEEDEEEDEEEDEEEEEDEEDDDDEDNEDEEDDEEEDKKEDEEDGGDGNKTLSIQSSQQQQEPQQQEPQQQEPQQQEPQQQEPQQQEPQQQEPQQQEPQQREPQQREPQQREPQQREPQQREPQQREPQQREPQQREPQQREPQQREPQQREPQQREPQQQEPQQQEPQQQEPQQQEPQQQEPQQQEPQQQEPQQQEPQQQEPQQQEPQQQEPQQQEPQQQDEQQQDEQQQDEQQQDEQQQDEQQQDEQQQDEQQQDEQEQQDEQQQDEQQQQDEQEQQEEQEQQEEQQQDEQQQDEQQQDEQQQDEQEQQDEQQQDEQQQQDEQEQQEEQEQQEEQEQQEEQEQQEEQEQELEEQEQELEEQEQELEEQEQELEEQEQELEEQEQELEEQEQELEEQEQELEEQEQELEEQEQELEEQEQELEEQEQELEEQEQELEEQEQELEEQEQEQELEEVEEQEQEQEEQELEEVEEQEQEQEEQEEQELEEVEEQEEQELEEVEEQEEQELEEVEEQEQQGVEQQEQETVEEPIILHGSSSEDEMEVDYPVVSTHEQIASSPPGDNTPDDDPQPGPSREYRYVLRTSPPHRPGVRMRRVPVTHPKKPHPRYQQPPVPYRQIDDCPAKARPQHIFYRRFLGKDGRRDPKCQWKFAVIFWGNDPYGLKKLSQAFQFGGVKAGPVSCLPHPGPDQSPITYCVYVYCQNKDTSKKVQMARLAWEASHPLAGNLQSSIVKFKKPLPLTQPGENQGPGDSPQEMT
MLL AF4-AF9 inh = MLL-AF4/AF9 protein interaction inhibition. 0.47% of 350,000 active. AlphaScreen, biotin-AF4 peptide binding to FLAG-AF9. inhibition, % at 10 µM. AID 651704. P42568;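 active = every replicate reaching a set inhibition limit, whatever the replicate mean, cut at about 25% in these data; inconclusive = mean inhibition reaches that limit but some replicates miss it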;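 note: 0% = plate neutral control median and 100% = total signal loss; the record names both 10 and 1 µM as test concentration; the first replicate is given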
Calb FLC = C. albicans growth modulation with fluconazole; AID 1979; C. albicans CaCi-2 (fluconazole-resistant clinical isolate) + fluconazole, Alamar Blue growth, 48 h; growth inhibition, % (concentration not given with the values); 0.57% of 300,000 active;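 active = most replicates above 75%; inconclusive = exactly half above 75%; inactive = most below 75%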;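 note: all wells also contain fluconazole at 8 µg/ml as a sub-toxic cotreatment; 0% = median of DMSO wells and 100% = median of geldanamycin control wells; wells of about 8 µL received 7.5 nL stock; the first replicate is given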
RanGTP-Imp inh = disruptors of Ran-importin-beta complex formation – biochemical, FRET, CFP-Ran, YFP-importin-beta, homogeneous, primary screen; inhibition, % (concentration not given with the values); 1.1% of 300,000 active; cell-free CFP-Ran/YFP-importin-beta FRET ratio; AID 2216;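 active = most replicates above 15%; inconclusive = exactly half above 15%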;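 note: 0% = DMSO wells and 100% = Ran loaded with GDP instead of GTP; wells of about 40 µL received 100 nL stock; the first replicate is given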
T cruzi inh = blocks replication of Trypanosoma cruzi; T. cruzi beta-gal in NIH3T3, luminescence, 90 h; inhibition, % (concentration not given with the values); 1.4% of 300,000 active;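 active = mean inhibition across valid replicates above about 55%, limit read from the data; inconclusive = mean below that limit but half or more replicates reach it; inactive = mean below it, under half of replicates reach it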;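 note: signal also drops with host cell toxicity which is not excluded here; 0% = plate median of DMSO wells and 100% = zero luminescence signal; higher percent means less beta-gal luminescence so fewer parasites; stock transfer was 50 nL into about 50 µL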
Bfl-1 A1 inh = inhibitors of the anti-apoptotic protein A1, read as caspase activation; MEF A1-2A-BIM cells, Caspase-Glo 3/7 luminescence, 3 h; percent of clofoctol response, vehicle zero; caspase activation, % (no concentration beside the values); 0.066% of 330,000 active; AID 2462;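 active = over half of replicate activation scores above 10%, or exactly half above 10 with the replicate mean above 10; inconclusive = replicate mean below 10 yet half the replicates above 10; inactive = over half of replicates below 10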;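 note: wells of about 30 µL received 50 nL stock; many hits fall short of the cut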
Numbers without * were called inactive; ? = inconclusive; . = no result given; & = joins results of further samples.

SMILES | Beta cell apopt | Vif TR-FRET | LANA-H2B inh | MLL AF4-AF9 inh | Calb FLC | RanGTP-Imp inh | T cruzi inh | Bfl-1 A1 inh
Cc1cccc(OCC(=O)OCC(=O)N(CC(C)C)c2c(N)n(Cc3ccccc3)c(=O)[nH]c2=O)c1C | 1 | -3% | -4.9 | -14 | 6 | -2.8 | -7 | 0.5
Cc1cc(C(=O)Nn2c(-c3ccncc3)nc3ccccc3c2=O)ccc1[N+](=O)[O-] | -3 | 2% | 4.4 | -1.4 | 5 | 0.8 | 45 | 1.2
CCOc1ccccc1N1CCN(C(=O)CNC(=O)c2ccccc2F)CC1 | . | . | -6.1 | 0.7 | 3 | 0.3 | -12 | -0.3
O=C(COC(=O)c1ccc(O)cc1O)Nc1ccc2ccccc2c1 | -1 | -6% | -4.1 | 1.3 | . | . | . | 1.6
Cc1cc(C(=O)COc2ccccc2C(N)=O)c(C)n1C1CC1 | 5 | 25% | -6.0 | 2.9 | 5 | ? | 2 | 0.5
COc1ccc(CCN2C(=O)NC(NC(=O)CCc3ccccc3)(C(F)(F)F)C2=O)cc1OC (stereo not given) | -1 | . | -0.4 | 1.2 | 3 | 0.9 | 0 | 0.1
O=C(Nc1cccc2nsnc12)c1ccc2c(c1)OCO2 | 3 | 0% | 3.0 | . | -1 | 3.4 | -20 | -5.3
O=C(CSc1cccc[n+]1[O-])Nc1c(Br)cc([N+](=O)[O-])cc1Br | -3 | . | 1.2 | -16 | -10 | -1.5 | 49 | -0.1
O=C(Nc1cccnc1)c1c(O)c2cccc3c2n(c1=O)CC3 | -7 | -4% | 1.9 | . | 11 | 0.0 | -25 | -0.5
O=C(CCCn1cc([N+](=O)[O-])cn1)NCc1ccccc1 | 1 | . | -1.8 | -3.8 | 8 | 0.5 | -11 | -0.5
Cc1ccc(-n2c(SCc3nc4ccccc4c(=O)[nH]3)nnc2-c2ccccc2O)cc1 | 2 | . | -2.2 | 4.1 | 3 | 5.5 | 6 | 0.1
COC(=O)c1ccc(C(=O)OC)c(NC(=O)CN2CCN(c3ccc(OC)cc3)CC2)c1 | 2 | 19% | -4.1 | . | 8 | ? | 3 | 1.6
O=C1c2cccc3cccc(c23)N1Cc1ccc(F)cc1 | -8 | -1% | 2.1 | -4.6 | 11 | ? | -3 | 1.2
Cc1ccc(-c2nc(N3CCN(C)CC3)c3ccccc3n2)cc1 | -3 | . | 3.7 | 2.4 | 7 | -3.6 | 29 | -0.6
O=C(c1cc2c(=O)n3ccccc3nc2s1)N1CCOCC1 | 2 | -5% | 2.8 | . | ? | 4.6 | -14 | -0.3
CC(C)CC(=O)Nc1ccc(S(=O)(=O)NCc2ccco2)cc1 | 1 | ? | 2.1 | . | 5 | ? | -7 | 0.3
Cc1ccc(NC(=O)CSc2nc3ccccc3c3nc(CCc4c(C)n[nH]c4C)nn23)cc1F | 6 | 3%&-6% | -3.7 | . | -12 | -1.6 | 29 | -0.4
Oc1c(N=Nc2ccccn2)ccc2ccccc12 | 96* | 7% | 1.9 | . | -3 | -4.1 | 73* | -6.8
CCOC(=O)N1CCN(c2cc(=O)n(C)c(=O)n2C)CC1 | -4 | . | 1.3 | . | 3 | 3.8 | -3 | -0.1
O=C(N/N=C/c1ccco1)C(O)C(O)C(=O)N/N=C/c1ccco1 (stereo not given) | -7 | . | 1.0 | 1.0 | -13 | 0.6 | -8 | 1.1
O=C(Cc1ccccc1)NCCc1cccc(Cl)c1 | -3 | -1% | -1.8 | . | -5 | -1.7 | -24 | 0.6
Cc1occc1C(=O)N/N=C/c1ccc(OCc2ccccc2)cc1 | 3 | -2% | 0.8 | -21 | 1 | 5.1 | -15 | -6.4
Cc1oc(/N=C/c2ccccc2O)c(C#N)c1C | -4 | 7% | -6.5 | . | -13 | 2.4 | -21 | 0.0
CCn1c(=O)cc(SCC(=O)N2CCC(C)CC2)c2ccccc21 | -7 | 5% | 0.2 | . | -28 | -0.7 | 12 | 0.6
Cc1ccccc1C(=O)NCCc1nnc(SCC(=O)Nc2nc(-c3ccccc3)cs2)n1C | -3 | 6% | 1.9 | . | -4 | 1.4 | -18 | 0.2

Following part
SMILES | Beta cell apopt | Vif TR-FRET | LANA-H2B inh | MLL AF4-AF9 inh | Calb FLC | RanGTP-Imp inh | T cruzi inh | Bfl-1 A1 inh
OC(COC(c1ccc(Cl)cc1)c1ccc(Cl)cc1)CN1CCN(c2ccccn2)CC1 (stereo not given) | 8 | ? | -4.1 | 5.6 | -20 | -1.9 | 28 | -0.7
Cc1nn(CC(=O)NCc2ccc(C(=O)O)cc2)c(C)c1[N+](=O)[O-] | -4 | 1% | -0.1 | -1.6 | -21 | 0.5 | 3 | 0.4
O=C(COC(=O)C1CC(O)CN1S(=O)(=O)c1ccccc1[N+](=O)[O-])c1ccc[nH]1 (stereo not given) | -9 | -3% | 0.4 | -0.3 | . | . | . | 2.1
Cc1cccc(NC(=S)N2CCC(O)CC2)c1C | 1 | 3% | 0.2 | -2.1 | 4 | -0.1 | -9 | 0.0
CCC(C)NC(=O)c1cc(Cl)ccc1OC (stereo not given) | -4 | 3% | -2.1 | . | -6 | -0.1 | 3 | 0.1
CCC(C)[C@H]1CNCCN1CC1(c2ccccc2)CC1 (stereo not given in full) | -7 | . | 3.0 | -16 | 7 | 7.1 | 0 | 1.2
CCOC(=O)C1=NN(c2ccccc2C)C2=NC(C)=C(C(=O)OC)C(c3cccs3)N12 (stereo not given) | -4 | . | -3.1 | . | 21 | 4.9 | -1 | -0.4
CCn1c(=O)cc(NC2=NCC(C)CN2c2cccc(Cl)c2)n(C)c1=O (stereo not given) | -8 | -1% | -2.6 | . | 1 | 3.3 | -2 | 0.7
O=C(Nc1ccccc1C(=O)Nc1ccccc1)c1ccco1 | . | . | -4.5 | -0.9 | 2 | 0.9 | 0 | 0.3
CCOC(=O)c1ccc(-n2c(CN3CCC(C(N)=O)CC3)nc3ccc([N+](=O)[O-])cc3c2=O)cc1 | 0 | 28% | 0.3 | -13 | 8 | 0.8 | 5 | 0.7
Oc1ccc(Nc2nc(-c3cccs3)cs2)cc1 | -4 | 30% | 2.0 | . | -3 | 1.5 | -5 | -0.5
CCn1c(COc2ccc(Cl)cc2)nnc1SCc1ccc(C#N)cc1 | -11 | 11% | -5.1 | . | 6 | -0.2 | 13 | -0.9
COc1cccc(-c2csc(N3CCN(C(=O)Nc4ccccc4Cl)CC3)n2)c1 | -7 | -4% | 4.6 | 1.9 | -18 | 2.9 | 19 | 0.7
N#Cc1ccc(OS(=O)(=O)c2ccc(-c3ccon3)s2)cc1 | 6 | 6% | -6.2 | 1.3 | -9 | -1.3 | -9 | 0.0
CN(C)S(=O)(=O)c1cccc(NC(=O)COC(=O)/C=C/c2ccc3c(c2)OCO3)c1 | -2 | -3% | . | 1.4 | ? | 2.4 | -14 | -1.5
Cn1c(=O)c2c(SCC(=O)N3CCN(c4ccccc4)CC3)nc(C3CC3)nc2n(C)c1=O | 3 | -6% | -0.9 | -3.8 | -4 | 3.0 | 7 | -0.4
COc1ccc(NC(=O)c2onc(C)c2Cl)cc1 | -1 | -2% | 6.0 | -1.3 | -2 | -2.6 | -11 | -0.7
CS(=O)(=O)c1ccc(Cl)c(NC(=O)COC(=O)c2ccc(F)cc2Cl)c1 | . | -10% | 2.9 | -1.8 | -9 | 3.0 | 3 | 0.6
O=C(/C=C/c1ccccc1)NNC1=NS(=O)(=O)c2ccccc21 | 0 | . | 0.0 | -2.7 | 43 | 1.8 | -14 | -0.6
CC(C)OCCCNc1ncc2c(n1)CC(c1cccs1)CC2=O (stereo not given) | 0 | -4% | -2.0 | -2.9 | 32 | 5.3 | 6 | -0.6
Cc1c(NC(=O)C2CCCCN2S(=O)(=O)c2ccc(Cl)cc2)c(=O)n(-c2ccccc2)n1C (stereo not given) | -4 | 2% | -5.7 | -4.5 | -1 | -0.1 | 7 | 0.5
CCC(C)(C)NC(=O)C(c1ccc(F)cc1)N(Cc1ccco1)C(=O)CCC(=O)Nc1ccccn1 (stereo not given) | 3 | 0% | 3.9 | . | 1 | 0.6 | 14 | 0.0
Cc1cccc(C)c1N1C(=O)c2cccc([N+](=O)[O-])c2C1=O | -10 | 18% | -3.3 | . | -5 | 0.1 | -2 | 0.1
COc1ccc(C(C(=O)NCC2CCCO2)N(C(=O)Cn2nnc3ccccc32)c2ccccc2C(C)=O)cc1OC (stereo not given) | -1 | . | -4.4 | -1.0 | 2 | 1.1 | -17 | 0.1
O=C(c1ccco1)N(Cc1ccc(Cl)cc1)Cc1ccco1 | 2 | . | -7.8 | -0.9 | -4 | -2.2 | -3 | 0.8

Remaining list, next part.
SMILES | Beta cell apopt | Vif TR-FRET | LANA-H2B inh | MLL AF4-AF9 inh | Calb FLC | RanGTP-Imp inh | T cruzi inh | Bfl-1 A1 inh
CCN(/C=N/c1sc2c(c1C#N)CC(C)(C)NC2(C)C)CC | . | -5% | -4.8 | . | -5 | 4.2 | 10 | 1.7
CCN1/C(=C2/SC(=S)N(NC(C)=O)C2=O)Sc2ccc(OC)cc21 | 8 | -2% | 0.9 | 4.7 | 12 | 34* | 8 | -0.4
O=C(CSc1nc2ccccc2o1)NCCOc1ccccc1 | -2 | 0% | -3.2 | . | -13 | 0.7 | -1 | 0.0
CC(=O)c1ccc(NC(=O)CN2c3cccc4cccc(c34)S2(=O)=O)cc1 | 2 | -4% | -2.3 | -1.5 | . | . | . | 0.0
COCCNc1c(-c2cc3ccc(C)c(C)c3[nH]c2=O)nc2ccccn12 | 2 | 3% | 0.9 | 5.1 | 30 | -5.9 | 4 | 0.1
O=C(O)CSc1nc(-c2cccs2)cc(C(F)(F)F)n1 | 5 | . | -1.6 | -0.9 | -11 | 2.4 | -6 | 0.8
CCN(CCNS(=O)(=O)c1ccc2[nH]c(=O)sc2c1)c1ccccc1 | -2 | -2% | 7.0 | -2.7 | -3 | 3.2 | -13 | 0.4
COC(=O)c1sccc1S(=O)(=O)NCc1ccc(S(N)(=O)=O)cc1 | -1 | 24% | 1.2 | -2.0 | 5 | 3.7 | -10 | 0.3
S=c1nc2ccccc2c2nc(-c3cccnc3)[nH]n12 | -5 | 0% | 3.2 | -9.9 | 25 | 3.2 | -4 | -1.0
CN=C1SC(CC(=O)Nc2ccc(F)cc2F)C(=O)N1/N=C(\C)c1cccc(OCC(=O)O)c1 (stereo not given) | -3 | -6% | 2.2 | -3.0 | -8 | -2.0 | -4 | 0.3
Cc1cc(C)n2c(SCC(=O)N(C)C3CCCCC3)nnc2n1 | -3 | -14% | 1.6 | -0.6 | 2 | -1.6 | -4 | 0.3
COc1ccc(CN(C)C(C)C(=O)Nc2ccc(S(=O)(=O)N3CCCC3)cc2)c(OC)c1OC (stereo not given) | 41 | -3% | 3.4 | . | 0 | -3.5 | 38 | -0.8
CC1C(=O)Nc2ccccc2N1C(=O)c1c(F)cccc1F (stereo not given) | -3 | -7% | -3.1 | 0.2 | 0 | -0.7 | 6 | 1.1
CCOc1cc(CNC(CC)CO)ccc1OCC(=O)Nc1cccc(C(F)(F)F)c1 (stereo not given) | 3 | -4% | -0.9 | -0.1 | -46 | 1.1 | 6 | 0.6
Cc1nc(Nc2nc3ccccc3o2)nc(C)c1C | 20 | 9% | 1.6 | -2.6 | -12 | 1.6 | -11 | -2.2
N#Cc1ccc(S(=O)(=O)N2CCCN(c3ccc(C(F)(F)F)cn3)CC2)cc1 | -2 | . | -2.4 | -1.2 | -2 | 4.6 | 7 | -0.3
